Screens from PubChem BioAssay.
A1 apoptosis 2 – A1 inhibition read as caspase activation; MEF A1-2A-BIM cells, caspase-Glo luminescence, 3 h; percent of clofoctol response, DMSO zero; caspase activation, % (no concentration beside the values); 24,000 tested, under 10 active; in the data active means caspase activation above about 5.9%;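 further: wells of about 30 µL received 50 nL stock; the first replicate is given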
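System: mouse embryonic fibroblasts co-expressing A1 and BIM (A1-2A-BIM), primed for A1 dependence; amount: 2500 cells/well; doses: 50 nL pinned compound; schedule: cells settled overnight, compound exposure 3 h at 37 °C, 5% CO2; detection: Caspase-Glo 3/7 luminescence, 1 h at room temperature; read-out: Caspase-3/7 activation, seen as rise in luminescence signal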
An asterisk follows results filed as active. These rows are one share of the data. The share of hits here may be higher or lower than overall.

mol	A1 apoptosis 2
C[C@@H]1CN([C@H](C)CO)C(=O)c2cc(NC(=O)Cc3ccccc3)ccc2O[C@@H]1CN(C)Cc1ccc(-c2ccccc2)cc1	1.4
CC(C)NC(=O)[C@@]1(C)c2ccccc2C(=O)N(Cc2ccc(OC(F)(F)F)cc2)[C@H]1c1ccc(CO)cc1	-0.3
O=C(C1=C[C@H](C2CCCCC2)C[C@H](OCCCCO)O1)N1CCN(Cc2ccccc2)CC1	-0.1
C[C@H]1CN([C@@H](C)CO)C(=O)Cc2cc(NS(C)(=O)=O)ccc2O[C@@H]1CN(C)Cc1ccc(C(F)(F)F)cc1	0.3
C[C@@H]1CN([C@H](C)CO)C(=O)c2cc(NC(=O)Cc3cn(C)c4ccccc34)ccc2O[C@@H]1CN(C)Cc1ccc(Oc2ccccc2)cc1	-0.3
CC1=C([C@H](O)CCc2ccccc2)[C@H](CO)n2c(=O)n(-c3ccccc3)c(=O)n2C1	-0.3
C[C@@H]1CN([C@@H](C)CO)C(=O)c2cc(NC(=O)CCC(F)(F)F)ccc2O[C@@H](C)CCCCO[C@@H]1CN(C)S(=O)(=O)c1ccc(F)cc1	-1.6
Cc1cc(C(=O)Nc2cccc3c2O[C@H](CN(C)C(=O)Nc2ccc(F)cc2)[C@@H](C)CN([C@H](C)CO)C3=O)n(C)n1	0.2
Cc1noc(C)c1S(=O)(=O)Nc1ccc2c(c1)C(=O)N([C@@H](C)CO)C[C@@H](C)[C@@H](CN(C)S(=O)(=O)c1cccs1)OCCCC[C@H](C)O2	1.9
COc1ccc(S(=O)(=O)Nc2ccc3c(c2)C(=O)N([C@H](C)CO)C[C@@H](C)[C@@H](CN(C)CC2CC2)O3)cc1	-0.1
CC(C)NC(=O)Nc1ccc2c(c1)C(=O)N([C@H](C)CO)C[C@@H](C)[C@H](CN(C)Cc1ccccc1)O2	-0.1
C[C@@H]1CN([C@@H](C)CO)C(=O)Cc2cc(NS(=O)(=O)c3ccccc3)ccc2O[C@@H]1CN(C)C(=O)Nc1cccc2ccccc12	0.5
COc1ccc(S(=O)(=O)N(C)C[C@H]2Oc3c(NS(C)(=O)=O)cccc3C(=O)N([C@H](C)CO)C[C@@H]2C)cc1	0.1
C[C@H]1CN([C@@H](C)CO)C(=O)Cc2cc(N(C)C)ccc2O[C@H]1CN(C)C(=O)Nc1ccc2c(c1)OCO2	0.3
COc1ccc(CN(C)C[C@H]2Oc3ccc(NC(=O)Nc4ccc(F)cc4)cc3C(=O)N([C@@H](C)CO)C[C@H]2C)cc1	-0.2

Additional records:
mol	A1 apoptosis 2
COc1ccc(S(=O)(=O)N(C)C[C@@H]2Oc3c(cccc3N(C)C)C(=O)N([C@@H](C)CO)C[C@H]2C)cc1	0.6
Cc1noc(C)c1S(=O)(=O)N(C)C[C@H]1OCCCC[C@H](C)Oc2ccc(NC(=O)CCCN(C)C)cc2C(=O)N([C@H](C)CO)C[C@@H]1C	1.7
C[C@H]1CN([C@@H](C)CO)C(=O)c2cc(NC(=O)Nc3ccccc3)ccc2O[C@H]1CN(C)Cc1ccncc1	-0.3
C[C@@H]1CN([C@H](C)CO)C(=O)c2cc(NC(=O)Nc3ccc4c(c3)OCO4)ccc2O[C@@H](C)CCCCO[C@H]1CN(C)S(C)(=O)=O	-0.3
COc1ccccc1NC(=O)N(C)C[C@@H]1OCc2cnnn2CCCC(=O)N([C@H](C)CO)C[C@H]1C	1.2
Cc1cc(C(=O)Nc2cccc3c2O[C@H](CN(C)C(=O)Nc2ccc4c(c2)OCO4)[C@H](C)CN([C@H](C)CO)C3=O)n(C)n1	-0.3
C[C@@H]1CCCCO[C@@H](CN(C)C(=O)Nc2ccc(C(F)(F)F)cc2)[C@H](C)CN([C@H](C)CO)C(=O)c2cc(NC(=O)NC3CCCCC3)ccc2O1	1.9
Cc1noc(C)c1NC(=O)Nc1ccc2c(c1)CC(=O)N([C@H](C)CO)C[C@H](C)[C@H](CN(C)C(=O)Nc1ccccc1)O2	0.4
Cc1noc(C)c1NC(=O)Nc1cccc2c1O[C@@H](CN(C)Cc1ccc3c(c1)OCO3)[C@H](C)CN([C@H](C)CO)C2=O	-0.5
Cc1noc(C)c1S(=O)(=O)Nc1ccc2c(c1)C(=O)N([C@@H](C)CO)C[C@@H](C)[C@H](CN(C)Cc1ccc(-c3ccccc3)cc1)O2	1.1
Cc1ccc(S(=O)(=O)N(C)C[C@@H]2Oc3ccc(NS(=O)(=O)c4cn(C)cn4)cc3CC(=O)N([C@H](C)CO)C[C@H]2C)cc1	-0.8
Cc1ccc(S(=O)(=O)N(C)C[C@@H]2OCCCC[C@@H](C)Oc3ccc(NC(=O)Nc4cccc5ccccc45)cc3C(=O)N([C@H](C)CO)C[C@H]2C)cc1	-0.8
COc1ccc(S(=O)(=O)Nc2cccc3c2O[C@H](CN(C)S(=O)(=O)c2ccc(OC)cc2)[C@@H](C)CN([C@@H](C)CO)C3=O)cc1	-1.8
Cc1noc(C)c1S(=O)(=O)N(C)C[C@@H]1Oc2ccc(NC(=O)Nc3ccc(F)cc3)cc2CC(=O)N([C@@H](C)CO)C[C@@H]1C	-0.1
C[C@H]1CN([C@@H](C)CO)C(=O)CCCn2nncc2CO[C@H]1CN(C)C(=O)C1CC1	0.4

The list continues.
mol	A1 apoptosis 2
C[C@H](CO)N1C[C@H](C)[C@@H](CN(C)Cc2ccc(C(=O)O)cc2)Oc2ccc(NC(=O)Nc3ccccc3)cc2CC1=O	0.0
CC(C)NC(=O)Nc1ccc2c(c1)C(=O)N([C@H](C)CO)C[C@H](C)[C@@H](CN(C)S(=O)(=O)c1cn(C)cn1)OCCCC[C@H](C)O2	0.3
COc1ccc(NC(=O)N(C)C[C@H]2Oc3ccc(NS(=O)(=O)c4ccc(F)cc4)cc3CC(=O)N([C@@H](C)CO)C[C@@H]2C)cc1	-1.3
O=C1O[C@H](c2ccccc2)[C@H](c2ccccc2)N2[C@H]1[C@@H](C(=O)N1CCCCCCC1)[C@]1(C(=O)Nc3ccc(C#CC4(O)CCCCCC4)cc31)[C@H]2c1ccc(OCCO)cc1	-0.1
Cc1ccc(S(=O)(=O)Nc2ccc3c(c2)C(=O)N([C@H](C)CO)C[C@H](C)[C@@H](CN(C)Cc2ccccc2)O3)cc1	-0.3
C[C@@H]1CN([C@@H](C)CO)C(=O)CCCn2nncc2CO[C@@H]1CN(C)CC1CCCC1	-0.5
COc1ccc(S(=O)(=O)N(C)C[C@H]2OCCCC[C@H](C)Oc3ccc(NS(=O)(=O)c4ccc(C)cc4)cc3C(=O)N([C@@H](C)CO)C[C@H]2C)cc1	-0.9
O=C(NCc1ccccc1)C1=C[C@@H](C2CC2)C[C@@H](OCc2ccc(CO)cc2)O1	-0.1
Cc1noc(C)c1S(=O)(=O)Nc1ccc2c(c1)C(=O)N([C@@H](C)CO)C[C@H](C)[C@H](CN(C)C(=O)Nc1ccc(C(F)(F)F)cc1)O2	0.4
C[C@@H]1CN([C@H](C)CO)C(=O)Cc2cc(NC(=O)NC3CCCCC3)ccc2O[C@@H]1CN(C)Cc1ccc2c(c1)OCO2	0.7
COc1ccc(CN(C)C[C@H]2Oc3ccc(NC(=O)Nc4ccccc4)cc3CC(=O)N([C@@H](C)CO)C[C@@H]2C)cc1	0.0
COc1ccc(CN(C)C[C@@H]2Oc3ccc(NC(=O)Cc4cn(C)c5ccccc45)cc3CC(=O)N([C@H](C)CO)C[C@H]2C)cc1	-0.1
C[C@@H]1CN([C@H](C)CO)C(=O)Cc2cc(NC(=O)Cc3ccccc3)ccc2O[C@@H]1CN(C)S(=O)(=O)c1ccc(Cl)cc1	0.9
Cc1ccc(S(=O)(=O)Nc2ccc3c(c2)C(=O)N([C@H](C)CO)C[C@@H](C)[C@H](CN(C)S(=O)(=O)c2cccs2)OCCCC[C@@H](C)O3)cc1	0.8
COc1ccc(NC(=O)Nc2ccc3c(c2)C(=O)N([C@H](C)CO)C[C@H](C)[C@@H](CN(C)C)O3)cc1	0.8

Further entries follow:
mol	A1 apoptosis 2
Cc1noc(C)c1S(=O)(=O)Nc1ccc2c(c1)C(=O)N([C@@H](C)CO)C[C@@H](C)[C@@H](CN(C)C)O2	-1.2
COc1ccc(S(=O)(=O)N(C)C[C@H]2Oc3ccc(NC(=O)Nc4ccccc4)cc3CC(=O)N([C@H](C)CO)C[C@@H]2C)cc1	0.3
C[C@@H]1CN([C@@H](C)CO)C(=O)CCCn2cc(nn2)CO[C@H]1CN(C)C(=O)c1ccc(N2CCN(C)CC2)cc1	-2.3
C[C@@H]1CN([C@H](C)CO)C(=O)Cc2cc(NS(=O)(=O)c3ccccc3)ccc2O[C@@H]1CN(C)C(=O)Nc1ccc(F)cc1	-0.8
C[C@@H]1CN([C@@H](C)CO)C(=O)c2cc(NC(=O)CCCN(C)C)ccc2O[C@@H]1CN(C)S(=O)(=O)c1ccc(Cl)cc1	-1.7
C[C@@H]1CN([C@H](C)CO)C(=O)Cc2cc(NC(=O)Nc3ccc(F)cc3)ccc2O[C@@H]1CN(C)Cc1ccc(Cl)c(Cl)c1	0.2
C[C@H](CO)N1C[C@H](C)[C@@H](CN(C)S(=O)(=O)c2ccc(F)cc2)Oc2ccc(NS(=O)(=O)c3ccc(F)cc3)cc2CC1=O	0.4
COc1ccc(CN(C)C[C@@H]2Oc3ccc(NC(=O)Nc4ccc5c(c4)OCO5)cc3CC(=O)N([C@@H](C)CO)C[C@H]2C)cc1	2.8
COc1ccc(S(=O)(=O)N(C)C[C@H]2Oc3c(NS(=O)(=O)c4ccc(C)cc4)cccc3C(=O)N([C@H](C)CO)C[C@H]2C)cc1	0.0
COC(=O)CCCCCCC(=O)N/N=C/[C@H](O)[C@H](O)[C@@H](O)[C@@H](O)CO	-0.1
COc1ccc(NC(=O)N(C)C[C@@H]2Oc3ccc(NS(=O)(=O)c4ccc(OC)cc4)cc3C(=O)N([C@@H](C)CO)C[C@@H]2C)cc1	1.3
COc1ccc(NC(=O)Nc2ccc3c(c2)C(=O)N([C@@H](C)CO)C[C@@H](C)[C@@H](CN(C)Cc2ccc(C(F)(F)F)cc2)O3)cc1	0.2
COc1ccc(NC(=O)Nc2ccc3c(c2)C(=O)N([C@@H](C)CO)C[C@@H](C)[C@@H](CN(C)C(=O)C2CCCCC2)OCCCC[C@@H](C)O3)cc1	-0.6
COc1ccc(NC(=O)Nc2ccc3c(c2)C(=O)N([C@@H](C)CO)C[C@H](C)[C@@H](CN(C)S(=O)(=O)c2cn(C)cn2)OCCCC[C@@H](C)O3)cc1	0.2
C[C@H]1CN([C@@H](C)CO)C(=O)Cc2cc(N(C)C)ccc2O[C@H]1CN(C)C	1.7

Entries above that have a CF3 group, in the order listed:
mol	A1 apoptosis 2
CC(C)NC(=O)[C@@]1(C)c2ccccc2C(=O)N(Cc2ccc(OC(F)(F)F)cc2)[C@H]1c1ccc(CO)cc1	-0.3
C[C@H]1CN([C@@H](C)CO)C(=O)Cc2cc(NS(C)(=O)=O)ccc2O[C@@H]1CN(C)Cc1ccc(C(F)(F)F)cc1	0.3
C[C@@H]1CN([C@@H](C)CO)C(=O)c2cc(NC(=O)CCC(F)(F)F)ccc2O[C@@H](C)CCCCO[C@@H]1CN(C)S(=O)(=O)c1ccc(F)cc1	-1.6
C[C@@H]1CCCCO[C@@H](CN(C)C(=O)Nc2ccc(C(F)(F)F)cc2)[C@H](C)CN([C@H](C)CO)C(=O)c2cc(NC(=O)NC3CCCCC3)ccc2O1	1.9
Cc1noc(C)c1S(=O)(=O)Nc1ccc2c(c1)C(=O)N([C@@H](C)CO)C[C@H](C)[C@H](CN(C)C(=O)Nc1ccc(C(F)(F)F)cc1)O2	0.4
COc1ccc(NC(=O)Nc2ccc3c(c2)C(=O)N([C@@H](C)CO)C[C@@H](C)[C@@H](CN(C)Cc2ccc(C(F)(F)F)cc2)O3)cc1	0.2

Next entries follow.
mol	A1 apoptosis 2
C[C@@H]1CN([C@@H](C)CO)C(=O)c2cc(NC(=O)CCN3CCOCC3)ccc2O[C@@H]1CN(C)Cc1ccc(C(F)(F)F)cc1	-1.1
C[C@H](CO)N1C[C@H](C)[C@@H](CN(C)Cc2ccc(C(=O)Nc3ccccc3N)cc2)Oc2ccc(NS(=O)(=O)c3ccccc3)cc2C1=O	0.0
CNC[C@@H]1OCCCC[C@H](C)Oc2ccc(N(C)C)cc2C(=O)N([C@@H](C)CO)C[C@H]1C	0.3
COc1ccc(S(=O)(=O)N(C)C[C@H]2Oc3ccc(NC(=O)CCCCCC(=O)Nc4ccccc4N)cc3C(=O)N([C@H](C)CO)C[C@H]2C)cc1	1.3
C[C@@H]1CCCCO[C@@H](CN(C)Cc2ccccc2)[C@@H](C)CN([C@@H](C)CO)C(=O)c2cc(NC(=O)c3ccncc3)ccc2O1	-0.2
C[C@@H]1CN([C@@H](C)CO)C(=O)CCCn2cc(nn2)CO[C@H]1CN(C)Cc1ccc(Oc2ccccc2)cc1	-0.3
C[C@@H]1CCCCO[C@H](CN(C)Cc2ccccc2)[C@@H](C)CN([C@H](C)CO)C(=O)c2cc(NS(=O)(=O)c3ccc(Cl)cc3)ccc2O1	-0.7
C[C@H](CO)N1C[C@H](C)[C@H](CN(C)S(=O)(=O)c2ccc(F)cc2)Oc2ccc(NC(=O)C3CCCCC3)cc2CC1=O	0.7
C[C@H](CO)N1C[C@H](C)[C@@H](CN(C)Cc2ccncc2)Oc2ccc(NS(=O)(=O)c3cn(C)cn3)cc2C1=O	-0.8
C[C@@H]1CCCCO[C@@H](CN(C)C(=O)NC2CCCCC2)[C@H](C)CN([C@H](C)CO)C(=O)c2cc(NC(=O)c3ccccc3)ccc2O1	0.2
C[C@@H]1CCCCO[C@@H](CN(C)Cc2ccc3c(c2)OCO3)[C@@H](C)CN([C@H](C)CO)C(=O)c2cc(NC(=O)C3CCCCC3)ccc2O1	0.5
